LANA-H2B inh = blocks KSHV LANA binding to histone H2A/H2B | 320,000 compounds, 0.6% hits | Q9QR71 | inhibition, % (concentration not given with the values) | cell-free LANA-H2A/H2B peptide, fluorescence polarization | AID 2629; in the data active = inhibition mostly above about 10%, no sharp cut-off; inactive = mostly below about 6.7%;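 also: stock transfer was 7.5 nL into about 10 µL; 0% = median of vehicle wells and 100% = median of positive control wells; one replicate is shown; the record names a cut of 25% in any replicate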
HNF4A DNA FP = change in binding of human HNF4 alpha to DNA; activity change, % at 10 µM; HNF4a-FITC DNA binding, fluorescence polarization, 1 h; P41235; AID 1224865; 360,000 compounds, 0.3% hits; in the data active = activity change above about 30%, passing the limit was not always enough;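 also: controls were the assay level and a saturating level of protein; the project sought stronger binding though the title names inhibitors; some compounds called inactive have numbers as strong as hits; positive values seem to mean higher polarization but the record does not say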
Beta2AR agonist = human beta-2 adrenergic receptor agonism by FAP; P07550; Am2.2-beta2AR cells, FAP receptor internalization, flow cytometry; reference of the scale not given here; response, % (no concentration beside the values); 340,000 compounds, 0.43% hits; AID 504454;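 active = response above a set limit, near 3 SD of response in nonfluorescent compounds, cut at about 42% in these data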;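 also: stock transfer was 100 nL into about 11 µL; a reference agonist was the positive control; negative values mostly stem from fluorescent compounds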
Target sequence (P07550 whole entry, looked up): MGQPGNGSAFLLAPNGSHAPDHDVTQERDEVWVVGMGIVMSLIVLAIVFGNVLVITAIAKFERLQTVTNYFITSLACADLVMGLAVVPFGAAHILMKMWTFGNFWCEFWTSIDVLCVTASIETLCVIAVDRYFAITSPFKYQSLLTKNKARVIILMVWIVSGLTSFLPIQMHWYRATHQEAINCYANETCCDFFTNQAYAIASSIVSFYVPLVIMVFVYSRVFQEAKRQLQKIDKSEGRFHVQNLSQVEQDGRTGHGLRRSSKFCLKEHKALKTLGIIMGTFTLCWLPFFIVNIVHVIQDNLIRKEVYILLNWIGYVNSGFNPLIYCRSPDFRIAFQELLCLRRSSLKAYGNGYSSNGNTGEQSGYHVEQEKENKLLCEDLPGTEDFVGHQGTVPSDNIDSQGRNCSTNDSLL
FGF22 binding = shifts melting point of recombinant human FGF22. AID 651658. 340,000 compounds, 1.5% hits. calls only at 9.99 µM. Q9HCT0. recombinant FGF22 thermal shift, SYPRO orange fluorescence; percent of sucrose octasulfate shift, DMSO zero;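 active = melting point raised past a set limit in the mean and every replicate; three in four hits are not shown here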
Target sequence (Q9HCT0 whole entry, looked up): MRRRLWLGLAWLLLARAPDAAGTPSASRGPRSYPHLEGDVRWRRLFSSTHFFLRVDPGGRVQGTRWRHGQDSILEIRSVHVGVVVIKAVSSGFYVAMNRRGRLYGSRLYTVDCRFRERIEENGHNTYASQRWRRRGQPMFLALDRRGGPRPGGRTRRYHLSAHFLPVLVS
UCH37 DUB inh = inhibitors of human deubiquitinating enzyme UCH37 | purified proteasome/UCH37, Ub-AMC cleavage fluorescence | inhibition, % (test concentration not listed) | 330,000 compounds, 0.33% hits | AID 588478;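 active = mean of two replicates above 20%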;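 also: 0% = compound-free wells with enzyme and 100% = wells lacking proteasome; stock transfer was 100 nL into about 20 µL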
Target sequence (Q9Y5K5 whole entry, looked up): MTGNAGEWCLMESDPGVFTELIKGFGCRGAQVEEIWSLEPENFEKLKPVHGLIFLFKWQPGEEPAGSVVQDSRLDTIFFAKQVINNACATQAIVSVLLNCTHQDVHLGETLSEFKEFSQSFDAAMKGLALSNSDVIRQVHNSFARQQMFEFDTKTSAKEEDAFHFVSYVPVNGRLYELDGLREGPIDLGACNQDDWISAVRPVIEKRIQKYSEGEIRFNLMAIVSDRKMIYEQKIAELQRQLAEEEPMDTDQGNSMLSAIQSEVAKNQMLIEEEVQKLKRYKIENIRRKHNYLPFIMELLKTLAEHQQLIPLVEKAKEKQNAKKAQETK
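Signal – fluorescence, ex 355 nm, em 460 nm · System – Proteasome-bound UCH37 · Input – 0.15 nM proteasome as dispensed · Timing – 30 min preincubation with enzyme, 25 min cleavage at room temperature · Read-out basis – percent inhibition of cleavage signal versus uninhibited and no-proteasome wells · Medium – Tris-HCl pH 7.4 with ATP-MgCl2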
Ecoli growth = E. coli growth inhibition. Escherichia coli growth, OD600, 23 h; hits give low values. OD600 absorbance (concentration not given with the values). 330,000 compounds, 0.21% hits. AID 1053175;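 active = OD600 absorbance below the run mean of sample wells minus 3.6 SD, in any replicate, cut at about 0.56 in these data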;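 also: stock transfer was 300 nL into about 60 µL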
ALR inh = inhibitors of human sulfhydryl oxidase ALR. P55789. purified ALR, DTT oxidation, H2O2 HRP-luminol luminescence. inhibition, % (no concentration beside the values). 290,000 compounds, 3.8% hits. AID 485317;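 active = mean and each replicate at 75% or more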;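 also: stock transfer was 7.5 nL into about 7.5 µL; 0% = neutral wells and 100% = wells with inactivated enzyme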
An asterisk follows results filed as active; i = inactive; · = not tested or not shown; & = joins results of further samples. The list is partial (hit frequency here may not be typical).

Start of the listing, in advance, 3 compounds:
SMILES	LANA-H2B inh	HNF4A DNA FP	Beta2AR agonist	FGF22 binding	UCH37 DUB inh	Ecoli growth	ALR inh
CC(SCC(=O)Nc1ccc(S(=O)(=O)N2CCCCC2)cc1)C(=O)O (centres undefined)	1.4	2.3	-9	·	3.9	0.74	2
Cc1c2c([n+]3n1CCC3)CC(C)(C)CC2=O	-1.6	1.9	0	i	2.7	0.7	0
COc1ccc(Cc2n[nH]c(=S)n2N)cc1OC	-3.0	-0.5	7	·	-0.6	0.7	-148

The whole of this part, from the start:
SMILES	LANA-H2B inh	HNF4A DNA FP	Beta2AR agonist	FGF22 binding	UCH37 DUB inh	Ecoli growth	ALR inh
CC(SCC(=O)Nc1ccc(S(=O)(=O)N2CCCCC2)cc1)C(=O)O (centres undefined)	1.4	2.3	-9	·	3.9	0.74	2
Cc1c2c([n+]3n1CCC3)CC(C)(C)CC2=O	-1.6	1.9	0	i	2.7	0.7	0
COc1ccc(Cc2n[nH]c(=S)n2N)cc1OC	-3.0	-0.5	7	·	-0.6	0.7	-148
O=C(Nc1cc([N+](=O)[O-])ccc1Cl)C(Sc1ccccc1)c1ccccc1 (centres undefined)	7.4	3.8	1	i	4.5	0.74	·
CCCn1c(C)cc(C(=O)CSc2nc3ccccc3c(=O)n2Cc2ccco2)c1C	2.9	-0.6	-3	i	4.3	0.7	99*
COc1ccc(CNS(=O)(=O)CCNC(=O)c2ccccc2)cc1	1.6	-1.1	-5	i	1.2	0.62	-4
Cc1cc(NC(=O)CCCC(=O)N(c2ccccc2)C(C(=O)NC2CCCCC2)c2cccs2)no1 (centres undefined)	-0.2	-1.3	-8	·	3.6	0.7	-11
CCOc1ccccc1C(=O)Nc1ccc(-n2nncc2C(C)(C)C)cc1	-2.0	70*	-1	i	1.6	0.72	-7
Cc1ccccc1OCC(=O)OCC(=O)c1c[nH]c2ccccc12	·	2.9	-3	i	2.8	0.68	·
CS(=O)(=O)c1ccc(-c2nnn(CC(N)=O)n2)cc1	6.8	2.7	-19	i	5.1	0.71	-4
CCOC(=O)C1=C(COC(=O)[C@H](C)NS(=O)(=O)c2ccccc2F)NC(=O)NC1C (some centres undefined)	·	3.4	0	i	0.0	0.65	-2
O=C1COc2cccnc2N1	-4.0	6.9	4	·	2.3	0.68	-3
CC1CCCC(C)N1C(=O)COC(=O)CNC(=O)c1ccccc1F (centres undefined)	4.1	-0.9	1	i	1.9	0.69	-5
CCCCCNC(=O)CC1Nc2c3ccccc3nc(=S)n2C1=O (centres undefined)	-4.0	-0.7	6	·	2.7	0.67	10
CC(=O)c1cccc(S(=O)(=O)N2CCC(C(=O)NC3CCCC3)CC2)c1	·	0.6	14	i	2.4	0.68	·
NC(=O)CC(NC(=O)c1ccc(Br)cc1)c1ccc(NC2CCCCC2)c([N+](=O)[O-])c1 (centres undefined)	-0.1	17	-2	i	1.3	0.69	0
CCc1ccc(NS(=O)(=O)c2cc3c4c(c2)CCN4C(=O)CC3)cc1	3.8	3.6	-4	·	1.1	0.72	-8
COc1cc(C2C3C(=O)N(Cc4ccccc4)C(=O)C3ON2c2ccccc2)cc(OC)c1OC (centres undefined)	·	-0.5	14	·	·	0.69	·
O=C(C1CC(=O)N(c2ccccc2)C1)N1CCC(c2nc3ccccc3[nH]2)CC1 (centres undefined)	1.5	2.5	5	i	-1.1	0.66	-20
CCC(C)(C(=O)NC1CCCC1)N(Cc1ccco1)C(=O)c1ccc2c(c1)OCO2 (centres undefined)	2.2	-1.2	8	·	2.8	0.67	-13
Cc1csc(NC(=O)c2cccs2)n1	4.9	-2.7	32	·	2.9	0.69	3
Cc1cc(C(=O)Nc2ccc3c(c2)OCCO3)co1	0.0	-3.2	12	·	1.2	0.68	-3
CC1CCN(CCOc2cccc(Br)c2)CC1	-0.4	0.0	-8	·	4.0	0.65	1
O=C(N/N=C1/CC2C=CCC12)c1cccs1 (centres undefined)	·	2.3	2	i	·	·	·
O=C1CSc2ccc(C(=O)NCCC3=CCCCC3)cc2N1	-0.9	2.0	-6	·	-0.2	0.67	-2

The closing three records of the part above come first, to join the parts:
SMILES	LANA-H2B inh	HNF4A DNA FP	Beta2AR agonist	FGF22 binding	UCH37 DUB inh	Ecoli growth	ALR inh
CC1CCN(CCOc2cccc(Br)c2)CC1	-0.4	0.0	-8	·	4.0	0.65	1
O=C(N/N=C1/CC2C=CCC12)c1cccs1 (centres undefined)	·	2.3	2	i	·	·	·
O=C1CSc2ccc(C(=O)NCCC3=CCCCC3)cc2N1	-0.9	2.0	-6	·	-0.2	0.67	-2
Cc1ccc(NC(=O)NCC(c2ccccc2)N(C)C)cc1 (centres undefined)	-5.4	4.7	-5	i	1.2	0.66	-2
COC(=O)c1c(C)oc(C)c1S(=O)(=O)N1CCCCC1	5.2	-1.9	1	i	1.5	0.61	-1
COc1cc(C)ccc1OCC(=O)OCC(=O)NCC1CCCCC1	-0.8	3.8	-1	i	1.0	0.71	-4
Cn1nc(C(=O)NNC(=O)COc2ccccc2)c2ccccc2c1=O	-1.6	1.6	-4	i	3.4	0.67	-2
Cc1nc2c(C)cccn2c1/C(O)=C1\C(=O)C(=O)N(CCN(C)C)C1c1ccccc1 (centres undefined)	12*	2.9	6	i	9.0	0.7	4
CCOC(=O)c1ccc(-n2cncn2)nc1	0.3	-4.3	4	·	-1.7	0.68	0
CCCN1CCC(NC(=O)CC2C(=O)NCCN2Cc2cccc(OC)c2)CC1 (centres undefined)	-0.8	6.4	1	i	-2.7	0.68	-4
O=S(=O)(c1ccc(F)cc1)N1CCCC1	-6.5	-0.3	1	i	1.5	0.65	·
CC(C)(C)NC(=O)c1ccc(COc2ccccc2Br)o1	-1.7	-0.5	-1	·	-2.4	0.73	2
CCS(=O)(=O)Nc1ccc(C2=NN(C(=O)c3ccco3)C(c3cccs3)C2)cc1 (centres undefined)	-1.9	3.1	-17	i	-5.5	0.73	3
O=C(O)c1cccc2c1-c1ccccc1/C2=N\Nc1ccccc1	-5.3	0.1	5	i	·	·	99*
CCCCn1c(=S)[nH]c2ccccc2c1=O	2.2	-0.1	-21	·	0.7	0.66	·
O=C(NCCc1ccccc1)c1cnc2ccccn2c1=O	-0.8	-4.3	8	·	i	0.66	0
O=C(CSc1nnc(-c2cccnc2)s1)Nc1ccccc1	2.0	-2.9	-1	i	·	·	-2
CNC(=O)C(=O)NCC1OCCCN1S(=O)(=O)c1ccc(F)cc1C (centres undefined)	3.8	-0.2	4	i	1.6	0.69	3
COc1cc(OC)c(C(=O)N(CCc2ccccc2)Cc2ccccc2)cc1OC	-2.6	3.0	-4	i	1.8	0.72	-2
NS(=O)(=O)c1ccc(CNC(=S)NC2CCCCC2)cc1	1.8	1.2	-2	i	3.4	0.68	4
CC(C)c1ccc(N(C(=O)c2csnn2)C(C(=O)NC(C)(C)C)c2cccnc2)cc1 (centres undefined)	-2.5	2.9	4	i	4.0	0.7	·
Clc1ccc(C=Cc2ccccn2)cc1	·	-0.7	-1	i	0.3	0.65	·
O=C(COc1ccc(Cl)cc1)N1CCN(S(=O)(=O)c2ccc(Cl)cc2)CC1	-15	0.9	5	·	1.7	0.76	-2
O=C(Nc1ccccc1)c1ccc2c(c1)CCN2S(=O)(=O)c1ccccc1	-2.7	2.5	9	i	1.3	0.7	1
Cc1cc(/C=c2\sc3nc4ccccc4n3c2=O)c(C)n1-c1ccc(C(=O)O)cc1	·	-2.7	-5	i	·	·	·
Cc1ccc(CN2C(=O)CCC2C(=O)NCc2ccccc2Cl)cc1 (centres undefined)	-4.9	3.2	-14	i	1.8	0.69	-10
OC(CSc1c(Cl)cccc1Cl)CN1CCN(c2ccccc2F)CC1 (centres undefined)	-0.5	-1.9	-6	·	7.0	0.62	2
CC(C)CCn1c(CN2CCN(Cc3ccccc3)CC2)nc2c1c(=O)[nH]c(=O)n2C	-1.6	0.2	-5	·	3.9	0.73	3

Sorted by length of the SMILES (low to high): part of the list above.
SMILES	LANA-H2B inh	HNF4A DNA FP	Beta2AR agonist	FGF22 binding	UCH37 DUB inh	Ecoli growth	ALR inh
COc1ccc(Cc2n[nH]c(=S)n2N)cc1OC	-3.0	-0.5	7	·	-0.6	0.7	-148
Cc1c2c([n+]3n1CCC3)CC(C)(C)CC2=O	-1.6	1.9	0	i	2.7	0.7	0
CC1CCCC(C)N1C(=O)COC(=O)CNC(=O)c1ccccc1F (centres undefined)	4.1	-0.9	1	i	1.9	0.69	-5
O=C(Nc1ccccc1)c1ccc2c(c1)CCN2S(=O)(=O)c1ccccc1	-2.7	2.5	9	i	1.3	0.7	1
O=C(Nc1cc([N+](=O)[O-])ccc1Cl)C(Sc1ccccc1)c1ccccc1 (centres undefined)	7.4	3.8	1	i	4.5	0.74	·

The results go on.
SMILES	LANA-H2B inh	HNF4A DNA FP	Beta2AR agonist	FGF22 binding	UCH37 DUB inh	Ecoli growth	ALR inh
CC(C)(C)NC(=O)C(OC(=O)c1cccs1)c1ccc(C#N)cc1 (centres undefined)	0.8	0.7	3	·	2.2	0.69	-11
CCn1nc(C)c(/C=N/NC(=O)Cn2nnnc2N)c1C	0.7	0.6	-5	i	·	·	-3
Cc1ccc(C)c(S(=O)(=O)N(C)C2CCS(=O)(=O)C2)c1 (centres undefined)	-3.5	0.7	-1	i	1.3	0.65	-4
CCCCN(CC)C(=O)c1cc2cc3ccc(OC)cc3nc2o1	3.1	1.6	16	·	-331	0.71	·
CC(C)C1S/C(=N/N=C/c2ccco2)NC1=O (centres undefined)	-1.6	-3.2	2	·	·	·	4
COc1ccc(C(=O)NCC(=O)N2CCN(C(=O)c3ccco3)CC2)cc1[N+](=O)[O-]	-1.2	-0.2	-2	i	4.1	0.71	·
Cc1ccc(S(=O)(=O)Nc2cccc(C(=O)NCC(c3ccc(F)cc3)N3CCOCC3)c2)cc1 (centres undefined)	-3.8	0.1	18	i	0.6	0.7	-9
NC(=O)CSc1oc(-c2ccc(F)cc2)nc1S(=O)(=O)c1ccccc1	-2.4	1.1	-1	·	1.0	0.68	-5
CCn1c(SCc2nc3ccccc3c(=O)[nH]2)nnc1C(C)NC(=O)c1ccccc1F (centres undefined)	1.6	-0.6	-7	i	2.6	0.68	-13
Cc1onc(-c2ccccc2Cl)c1C(=O)Nc1sc2c(c1C(N)=O)CCC(C)C2 (centres undefined)	-1.9	-0.8	-19	·	-12	0.68	-4
N#CC(=C=[N-])c1nc2ccccc2nc1-[n+]1ccccc1	7.1&2.7	32&30	7&12	i	5.8&13	0.7&0.73	25&41
Cc1cc(C(F)F)n2ncc(C(=O)NCCc3ccccc3Cl)c2n1	1.9	3.1	-11	·	-0.8	0.69	-4
CCCN(CC(=O)Nc1ccccc1C)C(=O)c1ccc(N2CCOCC2)c([N+](=O)[O-])c1	-1.0	1.3	-2	i	1.2	0.69	-3
Cc1ccc2oc(C(=O)N(Cc3ccncc3)CC3CCCO3)c(C)c2c1 (centres undefined)	-3.4	-0.6	18	i	1.4	0.67	0
O=C(O)c1cc(-c2ccc(Cl)s2)nc2ccccc12	2.6	-7.5	0	i	i	0.72	93*
CCOC(=O)C(C)Sc1nc(-c2ccco2)cc(C(F)(F)F)c1C#N (centres undefined)	-5.7	9.5	7	·	-109	0.68	7
O=C(COc1ccc([N+](=O)[O-])cc1Cl)Nc1ccc2[nH]c(=O)[nH]c2c1	2.3	-3.8	-11	i	2.0	0.69	·
COc1cccc(NC2SC(=O)N(c3ccccc3)C2=O)c1 (centres undefined)	-0.2	3.7	6	i	2.5	0.7	-3
COC(=O)C1=C(C)Nc2nc(SCc3ccccc3)[nH]c(=O)c2C1c1cccs1 (centres undefined)	-3.0	3.2	10	i	-12	0.7	-5
CCC(C)Oc1cccc(OCCCCN2C(=O)NC(C)(C)C2=O)c1 (centres undefined)	0.2	3.3	-4	·	1.4	0.73	-9
O=C1CCC(C(=O)N2CCCCO2)CN1Cc1cccc(F)c1 (centres undefined)	-2.9	0.9	32	i	1.4	0.73	-13

Source: PubChem BioAssay (several laboratories)
